HPGD block = qHTS Assay for Inhibitors of HPGD (15-Hydroxyprostaglandin Dehydrogenase). purified HPGD, NADH fluorescence kinetic, PGE2 substrate. hit rate 4.3% among 150,000. Potency, µM, without a hit: at the highest dose activity change, negative = inhibition, hits mostly inhibitors. AID 894, 2007. 15-hydroxyprostaglandin dehydrogenase [NAD(+)] (Homo sapiens), P15428; active = well fitted inhibition curve with a large enough effect (not every such curve was filed as active); inconclusive = small, poorly fitted or top-dose-only effect, or another doubt; inactive = no such curve, though single readings can be large or run the other way;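 further: top concentration of the series not given in the record; plate controls included wells without enzyme; inactives centre near -10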
Target sequence (P15428 whole entry, looked up): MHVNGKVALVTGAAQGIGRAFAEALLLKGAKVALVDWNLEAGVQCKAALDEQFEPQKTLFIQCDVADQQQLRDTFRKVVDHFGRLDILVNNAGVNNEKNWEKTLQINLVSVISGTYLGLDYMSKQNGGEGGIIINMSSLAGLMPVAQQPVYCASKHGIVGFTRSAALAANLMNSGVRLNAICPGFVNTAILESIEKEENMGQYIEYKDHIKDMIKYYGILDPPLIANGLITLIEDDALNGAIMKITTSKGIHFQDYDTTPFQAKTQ
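NADH formation kinetics: reaction with 30 uM PGE2 and 1 mM NAD+ (final), 20 nM enzyme, Tris-HCl pH 8 with Tween 20, after 15 min compound preincubation at room temperature. Fluorescence change, last versus first of five reads.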
* = called active by the depositor; ? = inconclusive. On the % scale 0 is the no-effect control and ±100 the full control effect; potency means the concentration at half of the fitted maximal effect. Only part of the results is shown; rates above refer to the full screens.

HPGD block	molecule
-19%	O=S(=O)(Nc1ccc2nc(C(F)(F)F)[nH]c2c1)c1ccccc1
-3%	Cc1cc(=O)[nH]c(SCC(=O)Nc2nc3c(s2)CCCC3)n1
-16%	COC(=O)c1ccccc1NC=C1C(=O)OC2(CCCCC2)OC1=O
-13%	COc1ccccc1CNc1ncnc2c1nnn2Cc1ccccc1
-1%	N#C/C(=C\c1ccccc1)C(=O)N(c1ccccn1)C1CCCCC1
-2%	CN(C)CCN1C(=O)c2oc3ccccc3c(=O)c2C1c1ccc(F)cc1 (centres undefined)
-21%	Cc1ccc(C)c(-c2cc(C(=O)Nc3sc(C)c(C)c3C(N)=O)c3ccccc3n2)c1
3%	CCOC(=O)c1c(C)sc2c1N(C(=O)CN1CCOCC1)c1cc(Cl)ccc1S2

An excerpt of these results, as labelled records:
Cc1ccc(C)c(-c2cc(C(=O)Nc3sc(C)c(C)c3C(N)=O)c3ccccc3n2)c1
  HPGD block = -21%

COC(=O)c1ccccc1NC=C1C(=O)OC2(CCCCC2)OC1=O
  HPGD block = -16%

The results go on.
HPGD block	molecule
-20%	Cc1ccc(S(=O)(=O)c2nc(Nc3nccs3)sc2Cl)cc1
-12%	O=C1N/C(=N/c2ccccn2)SC1Cc1ccccc1 (centres undefined)
-19%	Cc1nn(Cc2ccc(F)cc2)c2sc(C(=O)Nc3ccccc3N3CCOCC3)cc12
-17%	CCOC(=O)/C(C(=O)Nc1ccc(Cl)cc1Cl)=C1/NC(C)(C)Cc2ccccc21
-10%	CC(C)=NOc1cc(NC(=O)CCl)cc([N+](=O)[O-])c1
-6%	CCOC(=O)CN1C(=O)N[C@@H](CCc2ccccc2)C(C(=O)OC)=C1C
-24%	Nc1c(C(=O)NCc2ccccc2)sc2nc3c(cc12)C(=O)CCC3
?	O=C(COC(=O)c1ccc2c(c1)OCCO2)NCc1ccccc1
-20%	O=C(NCc1ccc2c(c1)OCO2)C1CCN(S(=O)(=O)N2CCOCC2)CC1
-12%	Cc1ccc(S(=O)(=O)N2CCN(C(=O)CN3CCCCC3)C2C(C)C)cc1 (centres undefined)
?	Cc1nc2c(-c3ccc(F)cc3)c(C)nn2c(C)c1CCC(=O)N1CCC(Cc2ccccc2)CC1
1%	Cc1ccc(S(=O)(=O)N2CCN(CC(=O)N/N=C\c3cccnc3)CC2)cc1
-8%	CCC1=C(OC(=O)N(CC)CC)N2C(=O)OC(=NCC3CC3)[C@]2(C)[C@H]2C1=CC[C@H]1C(=O)NC(=O)[C@H]12
-7%	Cc1cc(C)n(C(=O)c2ccc(C)c(S(=O)(=O)N3CCCC3)c2)n1
0%	COC(=O)CSc1nnc(CCc2nc3ccccc3[nH]2)n1C
-14%	Cc1sc2nc(CSc3nnc(Cc4cccs4)n3C3CCCCC3)[nH]c(=O)c2c1C
-8%	C=CCn1c(SCC(=O)N2CCOCC2)nc(O)c(Cc2ccccc2)c1=O
-3%	Cc1ccccc1S(=O)(=O)Cc1ccc(C(=O)NCc2cccs2)o1
-12%	O=C(/C=C/c1c(Cl)cccc1Cl)Nc1ccncc1
-3%	COc1ccc(NC(=O)C2CCN(S(C)(=O)=O)CC2)cc1
-6%	COc1ccc(/C=N/NS(=O)(=O)c2ccccc2)cc1OS(=O)(=O)c1ccccc1
0%	Clc1ccc(COc2ccccc2CNCc2cccnc2)cc1
-8%	CC(=O)c1cccc(NC(=O)C2CCN(S(=O)(=O)c3ccccc3)CC2)c1
1%	COc1ccc(C2N=C(N)N=C(N)N2c2ccccc2OC)cc1OC (centres undefined)

19 of the compounds above, bar-delimited.
compound | HPGD block
CCOC(=O)CN1C(=O)N[C@@H](CCc2ccccc2)C(C(=O)OC)=C1C | -6%
Nc1c(C(=O)NCc2ccccc2)sc2nc3c(cc12)C(=O)CCC3 | -24%
O=C(COC(=O)c1ccc2c(c1)OCCO2)NCc1ccccc1 | ?
O=C(NCc1ccc2c(c1)OCO2)C1CCN(S(=O)(=O)N2CCOCC2)CC1 | -20%
Cc1ccc(S(=O)(=O)N2CCN(C(=O)CN3CCCCC3)C2C(C)C)cc1 (centres undefined) | -12%
Cc1nc2c(-c3ccc(F)cc3)c(C)nn2c(C)c1CCC(=O)N1CCC(Cc2ccccc2)CC1 | ?
Cc1ccc(S(=O)(=O)N2CCN(CC(=O)N/N=C\c3cccnc3)CC2)cc1 | 1%
CCC1=C(OC(=O)N(CC)CC)N2C(=O)OC(=NCC3CC3)[C@]2(C)[C@H]2C1=CC[C@H]1C(=O)NC(=O)[C@H]12 | -8%
Cc1cc(C)n(C(=O)c2ccc(C)c(S(=O)(=O)N3CCCC3)c2)n1 | -7%
COC(=O)CSc1nnc(CCc2nc3ccccc3[nH]2)n1C | 0%
Cc1sc2nc(CSc3nnc(Cc4cccs4)n3C3CCCCC3)[nH]c(=O)c2c1C | -14%
C=CCn1c(SCC(=O)N2CCOCC2)nc(O)c(Cc2ccccc2)c1=O | -8%
Cc1ccccc1S(=O)(=O)Cc1ccc(C(=O)NCc2cccs2)o1 | -3%
O=C(/C=C/c1c(Cl)cccc1Cl)Nc1ccncc1 | -12%
COc1ccc(NC(=O)C2CCN(S(C)(=O)=O)CC2)cc1 | -3%
COc1ccc(/C=N/NS(=O)(=O)c2ccccc2)cc1OS(=O)(=O)c1ccccc1 | -6%
Clc1ccc(COc2ccccc2CNCc2cccnc2)cc1 | 0%
CC(=O)c1cccc(NC(=O)C2CCN(S(=O)(=O)c3ccccc3)CC2)c1 | -8%
COc1ccc(C2N=C(N)N=C(N)N2c2ccccc2OC)cc1OC (centres undefined) | 1%

New compounds follow.
HPGD block	molecule
-11%	COc1ccc(S(=O)(=O)CCC(=O)NCCc2ccc(C)cc2)cc1
?	Cc1ccc(OC(C)C(=O)N2CCCc3ccccc32)cc1 (centres undefined)
0%	O=C(CNC(=O)c1ccccc1F)OCC(=O)N1CCCc2ccccc21
-11%	O=C(NC(=O)c1ccc(Cl)cc1)OC1CCCCC1
-7%	CCOC(=O)NC(NCc1ccccc1)(C(F)(F)F)C(F)(F)F
-5%	COc1ccc(C(=O)NCCc2ccc(S(N)(=O)=O)cc2)cc1OC

Bioassay records: PubChem BioAssay, National Center for Advancing Translational Sciences (NCATS)
